# CapD inh: blocks the Bacillus anthracis CapD enzyme. purified CapD enzyme, fluorescence intensity read-out; active compounds read low; some hits fall short of the stated cut. z-score (concentration not given with the values). hit rate 0.23% among 140,000. AID 492967;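 active = z-score under -4 in either of two replicates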;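 note: stock transfer was 100 nL into about 40 µL; score is relative to mean and spread of the plate; one replicate is shown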
# AID504770: growth inhibitors of E. coli YBA685 in a screen for V. cholerae RctB (chromosome II replication) inhibitors; AID 504770; E. coli YBA685 rctB-dependent plasmid, OD600 growth, 3 h; active compounds read low; z-score (concentration not given with the values); hit rate 0.27% among 130,000;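 active = z-score under -2 on both plates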;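 note: wells of about 30 µL received 100 nL stock; score is relative to mean and SD of the test wells; the first replicate is given; strong numbers were not always called active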
# Active calls of the source: *; / = no result given; & = joins results of further samples.
# Results follow in this order: CapD inh, AID504770
COc1cc(/C=N/n2c(C)nc3c(ncn3-c3ccccc3)c2=O)cc(OC)c1OC
  -0.455, 0.6
COc1ccc(C2CC(SCC(=O)Nc3ccccc3)=Nc3ncnn32)cc1 (stereo not given)
  -0.27, 0.25
O=C(NCc1ccccc1)C1Sc2nnc(-c3ccccc3)n2NC1c1ccc(F)cc1 (stereo not given)
  0.075, 0.95
Cc1cc(Br)ccc1NC(=O)c1cc2c(s1)-c1ccccc1OC2
  -0.93, 0.6
O=C(NC(=C(Oc1ccccc1)Oc1ccccc1)[P+](c1ccccc1)(c1ccccc1)c1ccccc1)c1ccccc1
  -0.115, /
COC(=O)C1=C(NC(=O)c2ccccc2F)CCS1
  /, -0.05
CS(=O)(=O)c1ccc(CNC(=O)c2ccc(-n3cc(-c4ccncn4)cn3)cc2)cc1
  3.85, /
C=CCN1C(=O)c2ccc(C(=O)Nc3ccc(F)cc3)cc2C1=O
  /, 0.35
O=C(Nc1ccccc1)c1ccncc1
  /, -0.7
O=C(Nc1ccc2c(c1)OCO2)c1cccc2c1C(=O)N(Cc1cccnc1)C2
  -0.51, -0.8
O=C(NCC1CCCCC1)c1cccnc1
  0.175, -0.85
OC(CNCc1ccc(Cl)cc1)CSc1ccccc1 (stereo not given)
  0.1, -0.25
O=C(NC1CC1)c1cc(-n2cnnc2)ccc1Cl
  /, -0.1
CCOc1ccc(-c2cc(C(=O)N3CCOCC3)c3c(-c4ccc(C)cc4)[nH]nc3n2)cc1
  3.21, 0.75
CN1C(=O)N(C)C2C1NC(=O)N2CCC(=O)O (stereo not given)
  -0.365, /
CC(=O)Nc1ccc(NC(=O)c2ccnn2C)cc1
  -0.675, 1.4
O=C(N/N=C/c1cccc(O)c1)c1cc2ccccc2s1
  0.65, /
Cc1nn(-c2ccccc2)c(C)c1CCC(=O)OCc1ccc(C#N)cc1
  /, -0.65
CC1(C)CC(=O)C=C(N2CCOCC2)C1
  -0.305, /
COc1ccc(-c2c3c(c(-c4ccccc4)n2-c2ccc(OC)cc2)C(=O)c2ccccc2C3=O)cc1
  -0.23, /
Cn1c(=O)[nH]c(=O)c2c1nc1n2CCN1Cc1ccco1
  0.07, 0.5
CCN(CC)S(=O)(=O)c1ccc(C(=O)Nc2c3c(nn2-c2cccc(C)c2)CSC3)cc1
  -0.805, /
Cc1cc(C)c2c(c1)CC(C)(C)c1nc3c([N+](=O)[O-])cccc3nc1-2
  -0.005, /
COC(=O)C1C(=O)NC(SCC(=O)Nc2ccc(Cl)c(Cl)c2)=C(C#N)C1c1ccccc1OC (stereo not given)
  -0.11, /
O=C1CC2(CCCC2)C(=O)N1CCc1cccs1
  -0.395, -0.9
Cc1cc(C)cc(NC(=O)N2CCC(NC(=O)C3CCCCC3)CC2)c1
  /, -0.2
Cc1nc2ccc(NC(=O)c3cccc(S(C)(=O)=O)c3)cc2s1
  /, -1.7
CN1CCCC1CCOC(=O)NNC(=O)c1ccc(-c2ccccc2)cc1 (stereo not given)
  1.38, /
CCOC(=O)C12C(=O)OC(C)(C)C1C2(C)C(=O)c1ccc(Br)cc1 (stereo not given)
  0.13, -0.75
CS(=O)(=O)Nc1ccccc1C(=O)OCC(=O)NC1CC1
  /, -0.75

# Compound profiles (already shown). Order of values: CapD inh | AID504770
# CS(=O)(=O)Nc1ccccc1C(=O)OCC(=O)NC1CC1 across the screens: / | -0.75
# Cc1nn(-c2ccccc2)c(C)c1CCC(=O)OCc1ccc(C#N)cc1 across the screens: / | -0.65

# Further compounds:
# Results follow in this order: CapD inh, AID504770
CCN(CC)c1ccc2cc(C(=O)NC(C)=O)c(=Nc3ccccc3OC)oc2c1
  0.2, /
O=c1c(C=Nc2ccc(Cl)c(Cl)c2)c(C(F)(F)F)[nH]n1-c1ccc([N+](=O)[O-])cc1
  -0.43, /
NC(N)=NS(=O)(=O)c1cc(C(F)(F)F)cc(C(F)(F)F)c1
  -0.645, /
Cc1cccc(C)c1OC(=O)CN1C(=O)c2ccccc2C1=O
  -0.79, 3
Cc1cc(-c2c(O)c3ccccc3n(C)c2=O)no1
  1.67, 1.55
c1ccc(C2Oc3ccccc3C3CC(c4ccco4)=NN32)cc1 (stereo not given)
  0.53, 0.75
CC(Sc1nnc(-c2ccccc2)o1)C(=O)NCCC1=CCCCC1 (stereo not given)
  /, 1.4
Cc1nn(C(C)C(=O)NCc2ccccc2)c(=O)c2cc3occc3n12 (stereo not given)
  -0.31, -0.4
Cc1sc2nc(C(C)Sc3nnc(-c4cccs4)n3-c3ccccc3)[nH]c(=O)c2c1C (stereo not given)
  /, -0.55
NC(=O)c1cc2ccccc2o/c1=N\O
  -2.08, -0.7
CSc1nc(-c2ccccc2)nc2[nH]c(-c3ccccc3)cc(=O)c12
  -0.515, 2.3
COc1ccccc1C(C)NC(C)C(=O)c1c(N)n(C)c(=O)n(C)c1=O (stereo not given)
  /, 0.6
COc1ccc(C(=O)O)c(Cl)c1OC
  -0.9, /
COc1cc(OC)cc(C(=O)NC(C)C(N)=O)c1 (stereo not given)
  0.05, /
CN1CCN(CCNC(=O)Cn2ncc3c4ccccc4n(Cc4ccc(F)cc4)c3c2=O)CC1
  5.04, -2.65
Cc1cc2ccccc2n1CCNC(=O)C1CCCC1
  1.2, -0.65
COc1cc(OC)nc(C(Sc2nc3ccccc3[nH]2)c2ccccc2)n1 (stereo not given)
  -0.405, /
O=C(/C=C/c1ccco1)Nc1ccc2ccccc2c1
  -2.24, 0.45
O=c1c2ccccc2nc2n1CCN2Cc1ccccc1
  68.9, 0.15
COC(=O)c1sc(N)c(C(=O)OC)c1COC(=O)c1cc(S(N)(=O)=O)ccc1OC
  /, -0.15
COC(=O)/C=C1\S/C(=N\c2ccccn2)N(c2cccc(SC)c2)C1=O
  -0.75, -0.55
CSc1ccccc1NC(=O)CN(C)C(=O)C1CCCCC1
  /, 0.65
O=C(COC(=O)Cc1cccs1)Nc1ccc(F)c(F)c1F
  -0.85, 1.85
CN(Cc1ccccc1)C(=O)c1nc(-c2cccnc2)no1
  -0.1, -0.4
CC(OC(=O)c1ccccc1NS(C)(=O)=O)C(=O)NC1(C#N)CCCCC1 (stereo not given)
  /, 1.3
Clc1cccc(OCc2nc3ccccc3o2)c1Cl
  /, 0
CCCc1c(C(=O)NCCCn2ccnc2)cnn1-c1ccccc1
  -0.945, -0.3
CC(C)CNC(=O)c1ccc(Br)o1
  -0.205, -0.9
CC(C)(C)c1ccc(C(=O)N2c3ccccc3-c3c(ssc3=S)C2(C)C)cc1
  1.08, /
Cn1cc(-c2ccc(C(=O)N3CCc4ccccc4C3)cn2)cn1
  -0.36, /

# Exported with tabs: entries from further up
SMILES	CapD inh	AID504770
O=c1c(C=Nc2ccc(Cl)c(Cl)c2)c(C(F)(F)F)[nH]n1-c1ccc([N+](=O)[O-])cc1	-0.43	/
NC(N)=NS(=O)(=O)c1cc(C(F)(F)F)cc(C(F)(F)F)c1	-0.645	/
Cc1cccc(C)c1OC(=O)CN1C(=O)c2ccccc2C1=O	-0.79	3
Cc1cc(-c2c(O)c3ccccc3n(C)c2=O)no1	1.67	1.55
c1ccc(C2Oc3ccccc3C3CC(c4ccco4)=NN32)cc1 (stereo not given)	0.53	0.75
CC(Sc1nnc(-c2ccccc2)o1)C(=O)NCCC1=CCCCC1 (stereo not given)	/	1.4
Cc1nn(C(C)C(=O)NCc2ccccc2)c(=O)c2cc3occc3n12 (stereo not given)	-0.31	-0.4

# Other compounds
# Results follow in this order: CapD inh, AID504770
CC(=O)Nc1sc(C)c(C)c1C(=O)O
  0.32, -0.75
O=S(=O)(NC1=NCCC1)c1cccs1
  /, 0.15
Cc1nn(CC(=O)NC2CCCc3ccccc32)c(=O)c2cc3occc3n12 (stereo not given)
  0.035, -0.35
Cc1c2ccncc2c(C)c2c1[nH]c1ccccc12
  -0.785, /
Cc1ccc(CSc2nc3ccccc3c(=O)n2Cc2ccccc2)cc1
  0.47, -0.3
CCC(C)NC(=O)Cn1ncc2c1-c1ccccc1OC2 (stereo not given)
  0.195, -1.9
CCOC(=O)C1=NN(c2ccc(Cl)cc2)C(c2c[nH]c3ccccc23)N1c1ccc(C)cc1 (stereo not given)
  0.02, /
CSC1=NCCN1C(=O)c1ccc(Br)cc1
  /, -1.25
CC(C)Cn1cc(NC(=O)N(C)C2CCCCC2)c2ccccc2c1=O
  21, 0.75
O=C(O)COc1ccccc1/C=N\n1cnnc1
  /, -0.65
COc1ccc(C2SCCN2C(=O)c2cc3cc(Br)ccc3oc2=O)cc1OC (stereo not given)
  0.07, /
COc1cccc(/C=N/NC(=O)CS(=O)(=O)c2ccc(C(F)(F)F)cn2)c1
  -0.97, /
C=CCN1C(=O)/C(=C/C=C2/C=CN(CC)c3ccccc32)SC1=S
  0.535, /
COc1ccc(-c2nnc3sc(NC(=O)C(C)C)nn23)cc1
  0.245, -2.15
Cc1ccc(C(=O)N/C(=C/c2ccco2)C(=O)Nc2ccc(C(=O)O)cc2)cc1
  -2.85, -0.4
COc1ccccc1N1CCN(S(=O)(=O)c2ccc(C(C)=O)cc2)CC1
  -0.615, /
CC(C)(C)c1ccc(COC(=O)NNC(=O)/C=C/c2ccc(F)cc2Cl)cc1
  15.3, /
CC1(C)CC(=O)C2=C(C1)Nc1c(ccc3ccccc13)C2c1ccc(C(C)(C)C)cc1 (stereo not given)
  -0.09, /
COc1cccc2cc(C(=O)NCc3ccccc3)c(=Nc3ccc(C(=O)O)cc3)oc12
  0.515, /
CC(=O)NC1C(=O)N=C(SCC(=O)Nc2cccc(Cl)c2)NC1=O (stereo not given)
  0.265, 1.15
CCn1c(N2CCCCCC2)nc2c1c(=O)[nH]c(=O)n2C
  0.08, -4.45
COc1ccc(C(NC(=O)/C=C\c2ccco2)c2cc(OC)c(OC)cc2Br)cc1OC (stereo not given)
  0.115, -0.15
Cc1cccc(N(C)C(=S)Oc2ccc3ccccc3c2)c1
  1.16&-0.815, 0.5
Cc1cn(-c2nc(-c3ccccc3)oc2-c2ccccc2)c(=O)nc1N1CCCCC1
  -0.385, /
CN(C(=O)COC(=O)c1ccc(CN2CCCC2=O)cc1)c1ccccc1
  /, -0.1
c1ccc(NCC2COc3ccccc3O2)nc1 (stereo not given)
  1.42, -1.6
CCCN1CCN(C(=O)Cn2cnc3sc(C)c(S(=O)(=O)N4CCC(C)CC4)c3c2=O)CC1
  0.575, /
COC(=O)CCNc1ccc(OC)cc1
  -0.445, 1.4
O=C(Nc1ccccc1)OCc1cc(-c2ccc(Cl)cc2)oc1C(F)(F)F
  9.18, 0.35
O=C1c2ccc([N+](=O)[O-])cc2S(=O)(=O)N1Cc1ccccc1
  -0.05, /
CCOC(=O)Cn1nnnc1C(C(C)C)N(Cc1ccc(F)cc1)Cc1cc2cc3c(cc2[nH]c1=O)OCO3 (stereo not given)
  /, -0.35
CCCN=CC1=C(O)CC(c2ccccc2)CC1=O (stereo not given)
  -0.5, 1.1
CCCCCCCCCCCCCCCC(=O)OC/C=C(C)/C=C/C=C(C)/C=C/C1=C(C)CCCC1(C)C
  0.32, -0.05
O=C(Nc1cccc(C(=O)NC2CCCC2)c1)C1=CSCCO1
  -0.1, -0.45
COC(=O)CCCc1cccs1
  /, -0.75
CCCC/C(O)=C/c1nc2ccccc2[nH]c1=O
  0.405, 0.5
CC(C)(C)OC(=O)CSc1nc2ccccc2o1
  /, -0.05
CCN(CC)S(=O)(=O)c1cc(Br)ccc1OC
  -0.085, 0.05
Cc1nc2ccccc2cc1C(=O)Nc1cccc(F)c1
  0.68, -0.5
Cc1nnc(NC(=O)CSc2nnc(CNC(=O)c3ccc(S(=O)(=O)N4CCCC4)cc3)n2-c2ccccc2)s1
  0.02, /
CC1NC(=S)N(C2CC2)C1=O (stereo not given)
  /, 0.35
CCOC(=O)c1sc2nc3c(cc2c1N)C(=O)CCC3
  -0.33, -0.55
CN(C)c1ccc(C(CN)c2c[nH]c3ccccc23)cc1 (stereo not given)
  -0.735, -0.95
COC(=O)c1ccc(COC(=O)C2Cc3ccccc3CN2C(=O)c2ccco2)cc1 (stereo not given)
  /, -0.55
CCN(CC(N)=O)S(=O)(=O)c1ccc(Br)cc1
  0.465, -0.4
COc1ccc(C(=O)NCC(=O)OC2CCOC2=O)cc1 (stereo not given)
  /, -0.15
N#Cc1csc([N+](=O)[O-])c1
  -0.775, /
O=C(c1ccccc1)N1CCN(c2cc(C(F)(F)F)nc3ccccc23)CC1
  0.91, -0.15
CCOP(=S)(OCC)C1(Nc2ccc(C)cc2)CCCCC1
  9.78, -0.3
COc1ccc(C(=O)OC2CC(C)=CCC3(C)CCC(O)(C(C)C)C23)cc1O (stereo not given)
  -0.385, /
O=C1/C(=C2/C(=O)N(Cc3ccccc3)c3ccc(Br)cc32)SC(=S)N1CCS(=O)(=O)O
  -1.19, /
CCOC(=O)CNC(=S)NNc1ncc(C(F)(F)F)cc1Cl
  -0.52, /
Cc1ccccc1Nc1nc(CN2CCN(S(=O)(=O)c3ccccc3C#N)CC2)cs1
  /, 0.4
COc1ccc(N2C(N)=C(C#N)C(c3ccc([N+](=O)[O-])cc3)C3=C2CC(C)(C)CC3=O)cc1 (stereo not given)
  0.17, /
CC(Oc1ccc(Cl)cc1Cl)C(=O)NCCN1CCOCC1 (stereo not given)
  0.99, -0.05
COc1ccc(C2=N/C(=C\c3cn(C(C)=O)c4ccc(Br)cc34)C(=O)O2)cc1[N+](=O)[O-]
  -0.08, /
O=C(NC1CCCCC1)C1CC(=O)N(Cc2ccccc2)C1 (stereo not given)
  /, 2.6
CCOC(=O)N1CCC(n2c(SCC(=O)Nc3ccc(C)cc3)nc3ccccc3c2=O)CC1
  -0.17, -0.25
CC1CC(C)CN(C(=O)COC(=O)c2ccc(S(=O)(=O)N(C)C)cc2)C1 (stereo not given)
  /, -0.45

# Source: PubChem BioAssay
